From PubChem BioAssay
Vaccinia stage: Vaccinia orthopox stage-specific inhibition | 0.01% of 89,000 active | activity change (mCherry), % (no concentration beside the values) | Vaccinia-infected cells, mCherry/Venus stage reporter fluorescence; stronger effect = lower value; some inactives read as strong as hits;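 active = mCherry past -33% and 40 or more points under the early reporter, replicates agreeing; inconclusive = past -33% without that gap or agreement; tested in A549 cells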;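 also: scaled between vehicle wells and reference inhibitor wells; 23 nL library stock went into each well; one replicate is shown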
Vaccinia stage Venus: second read-out of Vaccinia stage, no call of its own (marks repeat the call); activity change (Venus), %; measured here: Venus reporter, other viral stage;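 negative = less Venus signal; first of two replicates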
Active calls of the source: *; ? = inconclusive; . = no result given. A portion of the library, so the mix of outcomes need not match the whole.

SMILES,Vaccinia stage,Vaccinia stage Venus
COc1cccc(C#Cc2ccc3c(c2)O[C@H](CN(C)C)[C@@H](C)CN([C@H](C)CO)S3(=O)=O)c1,?,.
COC(=O)C[C@@H]1CC[C@H]2[C@@H](COc3ccc(NC(=O)C4CC4)cc3C(=O)N2C)O1,11,8
C[C@H]1CN([C@@H](C)CO)C(=O)Cc2cc(NC(=O)CCCCCC(=O)Nc3ccccc3N)ccc2O[C@H]1CN(C)S(C)(=O)=O,15,7
CNC[C@@H]1Oc2ncc(-c3ccc(C)cc3)cc2C(=O)N([C@H](C)CO)C[C@H]1C,-7,1
COc1ccc(NC(=O)N(C)C[C@@H]2Oc3ccc(NS(=O)(=O)c4ccc(OC)cc4)cc3CC(=O)N([C@H](C)CO)C[C@H]2C)cc1,3,4
O=C(NCC[C@@H]1CC[C@@H](NC(=O)Nc2cc(F)ccc2F)[C@@H](CO)O1)Nc1ccc(Cl)cc1,-15,-9
CCC(=O)N[C@@H]1CC[C@H](CCn2cc(C3CC3)nn2)O[C@@H]1CO,5,3
N#Cc1cccc(-c2ccc3c(c2)[C@H]2[C@H](CCN2Cc2ccc4c(c2)OCO4)[C@@H](CO)N3)c1,-15,21
COc1ccc2c3c(n(C)c2c1)[C@@H](CO)N(Cc1cccnc1)CC31CN(C(=O)NC(C)C)C1,17,8
CNC[C@H]1OCCCC[C@H](C)Oc2ccc(NC(=O)NC3CCCCC3)cc2C(=O)N([C@H](C)CO)C[C@H]1C,4,6
O=C(CC1CC1)N[C@@H]1CC[C@@H](CCNS(=O)(=O)c2ccc(F)cc2)O[C@@H]1CO,5,-1
O=C(c1ccccn1)N1CC[C@@H]2[C@H](CO)Nc3ccc(-c4ccc(F)cc4)cc3[C@@H]21,?,.

In another format: entries from further up
Each structure is followed by: Vaccinia stage, Vaccinia stage Venus
> C[C@H]1CN([C@@H](C)CO)C(=O)Cc2cc(NC(=O)CCCCCC(=O)Nc3ccccc3N)ccc2O[C@H]1CN(C)S(C)(=O)=O
 : 15, 7
> CNC[C@@H]1Oc2ncc(-c3ccc(C)cc3)cc2C(=O)N([C@H](C)CO)C[C@H]1C
 : -7, 1
> COc1ccc(NC(=O)N(C)C[C@@H]2Oc3ccc(NS(=O)(=O)c4ccc(OC)cc4)cc3CC(=O)N([C@H](C)CO)C[C@H]2C)cc1
 : 3, 4

Further results.
SMILES,Vaccinia stage,Vaccinia stage Venus
COc1ccc(S(=O)(=O)Nc2ccc3c(c2)C(=O)N([C@@H](C)CO)C[C@H](C)[C@H](CN(C)Cc2ccc(Cl)c(Cl)c2)O3)cc1,?,.
C[C@@H]1CN([C@@H](C)CO)C(=O)c2cccc(NC(=O)C3CC3)c2O[C@@H]1CN(C)C(=O)Nc1ccc2c(c1)OCO2,1,-1
CC(C)NC(=O)N1CC[C@@H]2[C@@H](CO)N(C)c3ccc(-c4ccc(F)cc4)cc3[C@@H]21,?,.
C/C=C/c1ccc2c(c1)O[C@H](CN(C)Cc1ccc(C(=O)O)cc1)[C@H](C)CN([C@@H](C)CO)S2(=O)=O,9,18
CN1CCN(C(=O)C2=C[C@@H](C(C)(C)C)C[C@@H](OCc3ccc(CO)cc3)O2)CC1,15,18
CO[C@@H](CN(C)Cc1cc(F)ccc1F)[C@@H](C)CN(C(=O)Nc1ccc(F)cc1)[C@H](C)CO,-11,-3
Cc1noc(C)c1C(=O)N(C)C[C@H]1OCc2ccccc2-c2ccccc2C(=O)N([C@H](C)CO)C[C@H]1C,26,17
CCS(=O)(=O)N1CC2(C1)[C@@H](c1ccccc1)[C@@H](CO)N2CCC(F)(F)F,6,7
CCCC#Cc1ccc2c(c1)O[C@H](CN(C)C(=O)NC(C)C)[C@H](C)CN([C@@H](C)CO)S2(=O)=O,-24,-20
C[C@H](CO)N1C[C@H](C)[C@@H](CN(C)Cc2cccc(C(=O)Nc3ccccc3N)c2)OCc2ccccc2-c2c(n(C)c3ccccc23)C1=O,6,12
CO[C@@H]1CN(C)C(=O)c2ccc(NS(=O)(=O)c3cn(C)cn3)cc2OC[C@@H](C)NC[C@@H]1C,1,4
CCCNC(=O)N1[C@@H]2Cn3c(ccc(-c4ccccc4OC)c3=O)[C@H]1[C@@H](C(=O)OC)[C@@H]2CO,-6,4
C/C=C/c1cnc2c(c1)C(=O)N([C@H](C)CO)C[C@H](C)[C@H](CN(C)S(=O)(=O)c1ccc(C)cc1)O2,5,-4
CNC[C@H]1Oc2ccc(NS(C)(=O)=O)cc2CC(=O)N([C@@H](C)CO)C[C@@H]1C,3,2
COc1ccccc1CNC(=O)C[C@H]1C=C[C@H](NC(=O)CC2CC2)[C@@H](CO)O1,-3,3
COc1ccccc1S(=O)(=O)N[C@H]1CC[C@@H](CCNC(=O)C2CCCC2)O[C@@H]1CO,2,3
COc1ccc(-c2cn(CC[C@H]3CC[C@@H](NC(=O)NC(C)C)[C@@H](CO)O3)nn2)cc1,3,-2
COc1ccc(-c2ccc([C@H]3[C@@H](CO)N4CCCCN(C(=O)Cc5ccccc5)C[C@H]34)cc2)cc1,?,.
C[C@@H]1CN([C@H](C)CO)S(=O)(=O)c2ccc(C#C[C@@H](C)O)cc2O[C@@H]1CN(C)C(=O)Nc1ccccc1,1,0
COc1ccccc1S(=O)(=O)N1C[C@@H]2N[C@H](C1)C2c1ccc(-c2ccc(F)cc2)cc1 (stereo partly drawn),?,11
CN(C)C(=O)[C@H]1[C@H](CO)[C@H]2Cn3c(cccc3=O)[C@H]2N1C(=O)C1CCCCC1,14,9
O=C(C[C@H]1C=C[C@H](NS(=O)(=O)c2ccc(F)cc2)[C@@H](CO)O1)NCc1ccncn1,2,6
CCO[C@H]1OC(C(=O)N2CCCC2)=C[C@@H](c2ccc3c(c2)OCO3)[C@@H]1CCCO,5,1
C[C@H](CO)N1C[C@H](C)[C@@H](CN(C)C(=O)c2cccnc2)Oc2ncc(-c3ccc(F)cc3)cc2C1=O,17,6
COc1ccccc1S(=O)(=O)N[C@@H]1CC[C@@H](CCn2cc(C3CCCCC3)nn2)O[C@H]1CO,-5,-1
C[C@H](CO)N1C[C@H](C)[C@H](CN(C)Cc2ccc(C(=O)Nc3ccccc3N)cc2)Oc2ccc(NC(=O)C3CC3)cc2C1=O,-9,-12
COc1ccc(CNC(=O)C[C@H]2CC[C@@H](NC(=O)c3cccc(F)c3)[C@@H](CO)O2)cc1,-1,2
CCCN1C[C@H](C)[C@@H](OC)CN(C)C(=O)c2cc(NC(=O)c3ccccc3F)ccc2OC[C@@H]1C,-5,-12
COc1ccc(-c2cnc3c(c2)C(=O)N([C@@H](C)CO)C[C@@H](C)[C@H](CN(C)C(=O)Cc2ccccc2)O3)cc1,-8,-11
C[C@@H]1CN([C@@H](C)CO)S(=O)(=O)c2ccc(-c3ccccc3)cc2O[C@@H]1CN(C)Cc1cncnc1,-12,-19
COC(=O)C[C@@H]1CC[C@H]2[C@H](COc3ccc(NC(=O)c4ccc(C(F)(F)F)cc4)cc3C(=O)N2C)O1,-14,-13
C[C@@H]1CCCCO[C@@H](CN(C)S(=O)(=O)c2ccc(F)cc2)[C@H](C)CN([C@H](C)CO)C(=O)c2cc(NS(=O)(=O)c3cn(C)cn3)ccc2O1,1,1
C[C@H]1CN([C@@H](C)CO)C(=O)c2cc(NC(=O)C3CCCCC3)ccc2O[C@@H]1CN(C)S(=O)(=O)c1cn(C)cn1,5,1
C[C@H](CO)N1C[C@H](C)[C@H](CN(C)Cc2ccc(C(=O)O)cc2)Oc2ccc(NS(=O)(=O)c3ccccc3)cc2C1=O,18,10
Cn1cnc(S(=O)(=O)N2CCCCN3[C@H](CO)[C@@H](c4ccc(-c5ccccc5)cc4)[C@@H]3C2)c1,-19,-17
Cc1ccc(-c2cnc3c(c2)C(=O)N([C@@H](C)CO)C[C@H](C)[C@@H](CN(C)Cc2ccccc2F)O3)cc1,?,.
C[C@H](CO)N1C[C@H](C)[C@@H](CN(C)Cc2ccc(Oc3ccccc3)cc2)Oc2c(cccc2N(C)C)C1=O,-4,-9
O=C(N[C@@H]1CC[C@@H](CCn2cc(C3(O)CCCC3)nn2)O[C@@H]1CO)C1CCCCC1,15,12
Cc1noc(C)c1S(=O)(=O)Nc1cccc2c1O[C@H](CN(C)CC1CC1)[C@H](C)CN([C@@H](C)CO)C2=O,15,11
CC(C)NC(=O)Nc1ccc2c(c1)C(=O)N([C@@H](C)CO)C[C@H](C)[C@H](CN(C)C(=O)Nc1ccccc1)OCCCC[C@H](C)O2,11,2
O=C(NC1CCCCC1)N1CC2(C1)[C@@H](c1ccccc1)[C@@H](CO)N2S(=O)(=O)Cc1ccccc1,-6,2
O=C(C[C@H]1CC[C@@H](NC(=O)C2CCC2)[C@@H](CO)O1)NCC1CC1,3,6
C[C@H](CO)N1C[C@H](C)[C@@H](CN(C)C)OCCCC[C@H](C)Oc2ccc(NC(=O)Nc3ccccc3)cc2C1=O,-10,0
C[C@H]1CN([C@@H](C)CO)C(=O)c2cc(Br)cnc2O[C@@H]1CN(C)CC1CCCC1,23,13
C[C@@H]1CN([C@@H](C)CO)S(=O)(=O)c2ccc(C#Cc3ccncc3)cc2O[C@H]1CN(C)S(=O)(=O)c1ccc(F)cc1,-29,-5
Cc1noc(C)c1NC(=O)N(C)C[C@@H]1Oc2c(NS(=O)(=O)c3cccs3)cccc2C(=O)N([C@@H](C)CO)C[C@H]1C,0,8
CC=Cc1ccc2n(c1=O)C[C@@H]1[C@@H](CO)[C@H](C(=O)NCC)N(C(=O)C3CCOCC3)[C@H]21 (mixture of isomers),15,14
CC(C)NC(=O)Nc1ccc2c(c1)CC(=O)N([C@H](C)CO)C[C@@H](C)[C@@H](CN(C)S(=O)(=O)c1ccccc1)O2,12,10
C[C@@H]1CN([C@@H](C)CO)C(=O)c2cc(NC(=O)Nc3ccccc3)ccc2O[C@@H](C)CCCCO[C@H]1CN(C)S(=O)(=O)c1ccc(Cl)cc1,11,26
O=C(NCCc1ccncc1)[C@H]1[C@H](CO)[C@H]2Cn3c(ccc(-c4cccc(F)c4)c3=O)[C@@H]1N2,6,-1
COc1cccc(NC(=O)C[C@@H]2CC[C@@H]3[C@@H](COc4ccc(NC(=O)C5CCOCC5)cc4C(=O)N3C)O2)c1,3,-4
Cc1ccc(S(=O)(=O)Nc2cccc3c2O[C@H](CN(C)Cc2ccccc2)[C@@H](C)CN([C@H](C)CO)C3=O)cc1,12,7
CN(C)CC(=O)Nc1ccc2c(c1)[C@@H]1C[C@@H](CC(=O)NCc3cc(F)ccc3F)O[C@H](CO)[C@@H]1O2,1,-1
O=C(C[C@@H]1CC[C@H](NC(=O)Nc2cc(F)ccc2F)[C@@H](CO)O1)NCc1ccccn1,-2,-1
CC(C)NC(=O)N(C)C[C@@H]1Oc2ccc(NC(=O)Nc3ccccc3)cc2CC(=O)N([C@@H](C)CO)C[C@@H]1C,14,9
CO[C@@H]1CN(C)C(=O)c2cc(NC(=O)C3CC3)ccc2OC[C@@H](C)N(Cc2ccccc2)C[C@@H]1C,-20,-18
C[C@@H]1CN([C@H](C)CO)C(=O)c2cc(NS(=O)(=O)c3ccc(F)cc3)ccc2O[C@@H](C)CCCCO[C@H]1CN(C)S(=O)(=O)c1ccc(Cl)cc1,-29,-19
O=C(C[C@@H]1CC[C@@H](NC(=O)Nc2ccccc2F)[C@H](CO)O1)NCc1ccccc1,0,-2
O=C(C[C@@H]1C=C[C@H](NS(=O)(=O)c2ccccc2)[C@@H](CO)O1)NCCN1CCCCC1,3,1
CC(C)C#Cc1ccc2c(c1)O[C@H](CN(C)C(=O)c1cnccn1)[C@H](C)CN([C@H](C)CO)S2(=O)=O,12,4

Full records as entered above. Screens in order: Vaccinia stage	Vaccinia stage Venus
O=C(C[C@@H]1CC[C@H](NC(=O)Nc2cc(F)ccc2F)[C@@H](CO)O1)NCc1ccccn1 in the list: -2	-1
COc1cccc(NC(=O)C[C@@H]2CC[C@@H]3[C@@H](COc4ccc(NC(=O)C5CCOCC5)cc4C(=O)N3C)O2)c1 in the list: 3	-4
CN(C)CC(=O)Nc1ccc2c(c1)[C@@H]1C[C@@H](CC(=O)NCc3cc(F)ccc3F)O[C@H](CO)[C@@H]1O2 in the list: 1	-1
CC(C)NC(=O)N(C)C[C@@H]1Oc2ccc(NC(=O)Nc3ccccc3)cc2CC(=O)N([C@@H](C)CO)C[C@@H]1C in the list: 14	9

Next part:
SMILES,Vaccinia stage,Vaccinia stage Venus
CCCNC(=O)Nc1ccc2c(c1)C(=O)N(C)[C@H]1CC[C@H](CC(=O)Nc3ccccc3C)O[C@@H]1CO2,6,13
COc1ccccc1NC(=O)N1[C@H](CO)[C@H](c2ccccc2)[C@@H]1C#N,0,6
C[C@H](CO)N1C[C@H](C)[C@H](CN(C)Cc2ccc(-c3ccccc3)cc2)Oc2ccc(NS(=O)(=O)c3cn(C)cn3)cc2CC1=O,-12,-8
COc1cccc(-c2ccc([C@H]3[C@H](C#N)N(C(=O)Cc4ccccc4)[C@H]3CO)cc2)c1,-13,-10
CCCNC(=O)N1C[C@@H](C)[C@@H](OC)CN(C)C(=O)c2ccc(NC(=O)CCC)cc2OC[C@H]1C,9,6
O=C(Cc1ccncc1)NCC[C@H]1CC[C@@H](NC(=O)Nc2ccc(Cl)cc2)[C@@H](CO)O1,5,11
CNC[C@H]1Oc2ccc(NS(=O)(=O)c3ccc(Cl)cc3)cc2CC(=O)N([C@H](C)CO)C[C@@H]1C,9,2
O=C(NC1CCCC1)N[C@H]1C=C[C@@H](CC(=O)N2CCOCC2)O[C@H]1CO,-8,0
Cc1ccc(S(=O)(=O)N(C)C[C@H]2OCCCC[C@@H](C)Oc3ccc(NS(=O)(=O)c4cccs4)cc3C(=O)N([C@@H](C)CO)C[C@@H]2C)cc1,-12,-19
